# MgrA DNA FP: S. aureus MgrA activity modulators, primary screen, biochemical, S. aureus Newman, fluorescence polarization | AID 602314, 2012 | inhibition, %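 (about 10 µg/mL by stock and volumes)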 | MgrA-DNA binding | 84,000 compounds, 0.13% hits;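 active = above 50% in either of two replicates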;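 note: 0% = protein plus DNA without compound and 100% = DNA alone without protein; higher means less MgrA bound to DNA so lower polarization; one replicate is shown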
# S aureus helic: inhibitors of S. aureus replicative helicase, primary screen, biochemical, fluorescence unwinding readout; replicative DNA helicase (DnaC/DnaB), Staphylococcus aureus; purified S. aureus helicase, fluorescence unwinding assay; about half of the hits fall short of the stated cut; inhibition, %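 (tested at about 80 µM)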; 120,000 compounds, 0.05% hits; AID 485395, 2010;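 active = both duplicates at 50% or more, or one of them with a favoured structure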;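 note: 0% = mean of negative control wells and 100% = mean of positive control wells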
# An asterisk follows results filed as active; x = not tested or not shown. The list is partial. The share of hits here may be higher or lower than overall.
# Start of the data: the first seven compounds, ahead of the listing:
MgrA DNA FP	S aureus helic	SMILES
x	4	CCC(=O)c1cn(CC(=O)O)c2ccccc12
-0.7	x	S=C(Nc1cccc(Cl)c1)N1CCc2ccccc2C1
x	1	O=C1CN(CC(=O)Nc2ccc3c(c2)OC(F)(F)O3)CCN1
-2.8	9	O=C(Nc1ccc(N2CCCCC2)cc1)c1ccc2c(c1)OCO2
-1.6	x	O=C(NCc1csc(-c2cccs2)n1)c1nc2ccccc2s1
-3.1	6	N#Cc1cccc(OC(=O)c2ccccc2)c1
4.7	5	O=C1S/C(=C/c2ccccc2F)C(=O)N1CN1CCCCC1

# The whole of this part, from the start:
MgrA DNA FP	S aureus helic	SMILES
x	4	CCC(=O)c1cn(CC(=O)O)c2ccccc12
-0.7	x	S=C(Nc1cccc(Cl)c1)N1CCc2ccccc2C1
x	1	O=C1CN(CC(=O)Nc2ccc3c(c2)OC(F)(F)O3)CCN1
-2.8	9	O=C(Nc1ccc(N2CCCCC2)cc1)c1ccc2c(c1)OCO2
-1.6	x	O=C(NCc1csc(-c2cccs2)n1)c1nc2ccccc2s1
-3.1	6	N#Cc1cccc(OC(=O)c2ccccc2)c1
4.7	5	O=C1S/C(=C/c2ccccc2F)C(=O)N1CN1CCCCC1
0.0	x	CN1CCC2(N3CCOCC3)C(C1)N=NN2c1cc(C(F)(F)F)cc(C(F)(F)F)c1 (stereo not given)
x	-30	COc1ccc(NC(=O)N(Cc2c[nH]c3ccccc23)C(C)C)c(OC)c1
-2.8	13	O=C(NCCC1=CCCCC1)c1cc2cc(Cl)ccc2oc1=O
0.5	x	O=c1c(C=Nc2ccccc2)c(O)c2cccc3c2n1CCC3
x	8	CN(C)C(=O)NCc1cccnc1
-3.8	3	N#C/C(=C/Nc1ccc(I)cc1)c1nc2ccccc2o1
x	-6	NCc1n[nH]c(=S)n1-c1cccc(C(F)(F)F)c1
-2.3	x	Cc1cc(C)n(C2=NCCN2C(=O)c2ccccc2F)n1
x	15	CC(N)c1ccc(-n2ccnc2)cc1 (stereo not given)
x	-8	Cc1cc(C(=O)CN2C(=O)CCC2=O)c(C)n1Cc1ccccc1
20	2	CC1=NN(C(N)=S)C(=O)C1C(c1ccccc1)C(C#N)C#N (stereo not given)
-0.8	3	CCCc1[nH]n(-c2nc3ccccc3s2)c(=O)c1C=NCC1CCCO1 (stereo not given)
-0.6	-12	Cc1ccc(CSc2ncnc3sc4c(c23)CCC4)cc1
0.9	x	COc1ccc(C2C3CCc4ccccc4C3=NN2CCOC(=O)C2CC2)cc1 (stereo not given)
x	-11	NNC(=O)CN1C(=O)COc2ccccc21
0.2	7	Cc1nc(NC2CCN(Cc3nnnn3Cc3ccc4c(c3)OCO4)CC2)[nH]c(=O)c1C
x	-4	O=C1CCCN1c1nc2ccccc2s1
x	-4	Cc1cccc(NC(C)C(=O)N/N=C/c2ccc(O)cc2)c1 (stereo not given)
0.5	x	Cc1cc(C)c2cc(C(=O)N3CCN(c4ncccc4C(F)(F)F)CC3)[nH]c2c1
4.7	x	Cc1cccc(Nc2nc3nonc3nc2N2CCCCC2)c1C
-1.2	-1	Cc1cc(C)n(C(=O)Nc2ccc(Cl)cc2)n1
x	-9	CCc1ccc(S(=O)(=O)N(C)C2CCS(=O)(=O)C2)cc1 (stereo not given)
1.1	-8	O=C(CNCc1ccco1)Nc1cccc(OC(F)(F)F)c1
x	1	Cc1ccc2ncc(C(=O)N3CCN(c4ccccc4)CC3)c(=O)n2c1
2.1	14	N#C/C(=C\c1cn(CC(=O)NCC2CCCO2)c2ccccc12)C(=O)N1CCCC1 (stereo not given)
x	-12	CCn1c2ccccc2c2cc(NC3=NC(C)(C)CS3)ccc21
-2.8	21	O=C(O)C1CCS(=O)(=O)C1 (stereo not given)
x	9	CCC(SC1=NCCS1)C(=O)Nc1nnc(-c2ccccc2OC)s1 (stereo not given)
x	-84	CCOc1cccc(=O)c2c(C)n(Cc3ccco3)c(C)c12
3.1	x	C=CCNC(=S)N1CCc2c([nH]c3ccccc23)C1C(F)(F)F (stereo not given)
-2.4	-1	Cc1cc(NC(=O)C(F)(F)F)n(-c2ccccc2)n1
x	3	O=c1cc(CO)oc(C(Nc2cccc(Cl)c2)c2ccccn2)c1O (stereo not given)
0.0	x	CCCCCN(CCCCC)C(=O)C(CCC(=O)O)NC(=O)c1ccc(Cl)c(Cl)c1 (stereo not given)
-3.6	4	S=C(Nc1ccccc1)N1CCN(c2ccc3nnc(-c4ccccc4)n3n2)CC1
x	-6	O=C(NCCOc1ccccc1)C1CCN(c2ncc(C(F)(F)F)cc2Cl)CC1
1.2	8	O=C(CCC(=O)N1CCOCC1)Nc1c(F)c(F)nc(N2CCOCC2)c1F
x	5	O=S1(=O)CC(S(=O)(=O)c2ccccc2)C(S(=O)(=O)c2ccccc2)C1 (stereo not given)
x	-25	CCN(CC)c1ccc(NC(=O)c2cccs2)c(N(CC)CC)n1
-2.3	x	CCOC(=O)C1=C(C)N=c2s/c(=C3\C(=O)N(CC)c4ccccc43)c(=O)n2C1c1ccc(Cl)cc1 (stereo not given)
x	-17	CC(C)(C)C(=O)Nc1nnc(SCC(N)=O)s1
0.6	-14	CC(=O)N(Cc1ccccc1)c1ccccc1C(=O)O
2.5	x	C/C(=N\O)C(C)Oc1ccc(Cl)cc1 (stereo not given)
-3.3	x	CCc1ccc(C(=O)O)cc1
x	-5	Cc1ccc(CCNC(=O)c2nnc(CS(=O)(=O)c3ccccc3)o2)cc1
-8.5	x	c1ccc(CN2CCC(c3ccco3)=N2)cc1
0.5	x	O=C(CSc1n[nH]c(=O)n1Cc1ccco1)c1csc2ccccc12
x	-18	c1ccc(-c2ccc(-c3ccccn3)nc2)nc1
x	-6	CN=c1scc(-c2cccs2)n1/N=C/c1ccc[nH]1
6.3	x	O=C(O)c1ccccc1N/C=C/[N+](=O)[O-]
2.4	x	COc1ccc(C(=O)Nc2ccc3oc(-c4cccc(Br)c4)nc3c2)cc1[N+](=O)[O-]
0.7	x	Cc1cccc(-n2cnc(C(=O)N3CCN(c4ccccc4)CC3)c2)n1
x	-3	CN(C)Cc1c(O)ccc2c(=O)c(-c3ccc4c(c3)OCCO4)coc12
x	-12	Cc1c(C(=O)N(Cc2ccc(N(C)C)cc2)Cc2ccco2)oc2ccccc12

# The list continues:
MgrA DNA FP	S aureus helic	SMILES
x	26	O=C1Cc2ccccc2C(=O)N1c1cccc(C(F)(F)F)c1
1.1	10	CCN(C(=O)CN1C(=O)N(c2ccc(C)c(Cl)c2)S(=O)(=O)c2ccccc21)c1ccccc1
-2.9	17	COc1ccc(OC)c(S(=O)(=O)N2CCCC2C(=O)N2CCc3ccccc3C2)c1 (stereo not given)
-1.6	x	Cc1ccccc1OCCN(C#N)c1nc(N(C)C)nc(N(C)C)n1
x	-11	COc1ccc(C(=O)c2c(O)nc3ccccn3c2=O)cc1
2.6	-2	COc1ccccc1OCc1ccoc1C(=O)O
x	12	COC(=O)c1cnc(N2CCCN(C(=O)C3COc4ccccc4O3)CC2)nc1C(F)(F)F (stereo not given)
x	-33	COCCNC(=O)c1nnc(Cc2ccc(C)cc2)o1
x	2	C=CCN1CC(O)=C(c2nc3ccccc3s2)C1=N
-0.2	3	CC1(CC(=O)N/N=C/c2cccc(Br)c2)OCCO1
x	17	COc1cccc(C(=O)Nc2cccc(-c3ccc4nncn4n3)c2)c1OC
2.2	-1	CCCCN(C(=O)c1ccc2c(c1)OCO2)c1ccccc1
-1.2	-18	CC(c1ccco1)N(C(=O)c1cccs1)c1ccccn1 (stereo not given)
1.4	-6	CCN(CC)C(=O)n1cnc(-c2ccccc2)c1-c1ccccc1
x	-14	COCCN1C(=O)c2oc3ccccc3c(=O)c2C12C(=O)N(C)c1ccccc12 (stereo not given)
1.1	12	Cc1ncc(CO)c(/C=N/N=C/c2ccc(Cl)cc2)c1O
x	-6	O=C(Cn1cc2c(n1)CCCCC2)Nc1ccccc1Br
1.0	-26	CNc1nc2ccccc2[nH]1
-0.9	-7	O=C(O)c1ccc(-n2nnnc2Oc2ccccc2C(=O)N2CCOCC2)cc1
-0.3	14	O=C1C(=Nc2cccc(C(F)(F)F)c2)c2ccccc2N1CN1CCc2ccccc2C1
0.7	13	CCS(=O)(=O)c1nc(S(=O)(=O)c2ccc(Cl)cc2)c(NCCN2CCOCC2)s1
x	22	Cc1ccc(C(=O)Nc2ccccc2C)cc1
x	-1	Cc1cc2oc(=O)cc(COC(=O)c3ccccn3)c2cc1C
x	-40	NC(=O)NC1CCCCC1

# Pulled by compound from above:
MgrA DNA FP	S aureus helic	SMILES
1.1	10	CCN(C(=O)CN1C(=O)N(c2ccc(C)c(Cl)c2)S(=O)(=O)c2ccccc21)c1ccccc1
1.4	-6	CCN(CC)C(=O)n1cnc(-c2ccccc2)c1-c1ccccc1
2.1	14	N#C/C(=C\c1cn(CC(=O)NCC2CCCO2)c2ccccc12)C(=O)N1CCCC1 (stereo not given)
2.2	-1	CCCCN(C(=O)c1ccc2c(c1)OCO2)c1ccccc1

# Carrying on.
MgrA DNA FP	S aureus helic	SMILES
-5.4	2	CC1=NN(c2ccccc2)C(=O)C1CCC#N (stereo not given)
-4.5	3	CC(=O)N1CCc2cc(NC(=O)NC34CC5CC(CC(C5)C3)C4)ccc21
x	9	Cc1cc(C)c2c(-n3cccc3)c(C(=O)NCc3cccnc3)sc2n1
x	-17	Clc1ccc2oc(Nc3ccc4oc5ccccc5c4c3)nc2c1
1.2	3	CCCC(=N)C1=C(O)CC(CC(C)SCC)CC1=O (stereo not given)
0.5	2	Cc1nn2c(COc3ccc(NC(=O)c4ccco4)cc3)nnc2c2ccccc12
3.8	-7	CS(=O)(=O)Nc1ccc(OC(F)(F)F)cc1
4.5	x	c1ccc(CSC2=NNC(c3ccccn3)S2)cc1 (stereo not given)
x	6	CCCCN(C(=O)c1ccc2c(c1)OCO2)C1CCS(=O)(=O)C1 (stereo not given)
0.1	x	c1ccc(-c2ncc(CN3CCN(c4ccccn4)CC3)[nH]2)cc1
2.7	x	Cn1nccc1NC(=O)CCc1ccccc1
0.8	6	O=C(O)/C=C\C(=O)NCc1ccco1
x	16	CC(=O)N(C)c1ccc(NC(=O)C23CC4CC(C2)CC(n2cnc(Cl)n2)(C4)C3)cc1
x	19	Cc1noc(C)c1COc1ccc(C(=O)OCC(=O)N2CCc3ccccc3C2)cc1
x	22	COc1ccc(C(CC(=O)NCc2ccc3c(c2)OCO3)n2cccc2)cc1 (stereo not given)
x	-9	COCCNC(=O)Cn1cc(C(=O)C(F)(F)F)c2ccccc21
-1.2	x	CCOC(CNc1ccc2nnc(-c3ccccc3)n2n1)OCC
x	-17	O=C(N/N=C/c1ccc(O)c(O)c1O)c1ccc(CSc2nc3ccccc3o2)cc1
x	-3	CCCn1nc(-c2nnc(-c3ccc(C)c(C)c3)o2)c2ccccc2c1=O
-3.1	-2	CCCCC1(C)OC(=O)C(=Cc2ccc(N(C)C)cc2)C(=O)O1 (stereo not given)
-0.3	6	CN(C)CCN(C)CC1CC=CCC1 (stereo not given)
x	17	COc1ccccc1-c1nnc(C2CCN(C(=O)c3ccc(F)cc3)CC2)o1
-3.2	9	CC(=O)N/C(=C/c1ccccc1)C(=O)Nc1ccc(I)cc1
2.5	21	Clc1ccccc1N1CCN(CC2CC=CCC2)CC1 (stereo not given)
x	-16	CCO/N=C(/N)c1[nH]ncc1Br
0.7	x	COC1(C)CNc2ccccc2C(=O)N1 (stereo not given)
-1.5	17	Cc1[nH]n(-c2ccc(Cl)cc2)c(=O)c1C=O
1.8	1	CCCCc1[nH]nc2c1C1(CCCCC1)C(C#N)=C(N)O2
-5.2	1	CCN(CC)CCNC1=NCCn2c1cc1cc(OC)ccc12
-1.2	x	CCCCCCCn1c(SC/C=C(\C)Cl)nc2c1c(=O)[nH]c(=O)n2C
x	14	O=C(COc1ccccc1)Nc1c(-c2cccs2)nc2ccccn12
-6.2	14	COc1ccc2c(c1)CCC(C)N2S(=O)(=O)c1ccc(C2CNC(=O)C2)cc1 (stereo not given)
x	-8	NC(=O)Cn1cnc2c(nnn2Cc2ccccc2)c1=O
-1.8	10	CC(=O)Nc1ccc(C(=O)OCC(=O)N2CCCC2)cc1
-1.2	x	FC(F)(F)c1cc(-c2ccc3c(c2)OCO3)nc2cc(-c3ccccc3)nn12
-2.5	x	c1ccc(-c2nsc(N3CCCC3)n2)cc1
0.6	x	Cc1oc(C(C)(C)C)cc1C(=O)N1CCN(C(c2ccccc2)c2ccccc2)CC1
-0.8	x	O=S(=O)(Cc1ccc(Cl)cc1)N1CCCCCC1
x	1	COc1ccc(N2CCN(CCCNC(=O)C3CCC(=O)N3Cc3ccc(F)cc3)CC2)cc1 (stereo not given)
x	15	CSc1ncnc2c1oc1ccccc12
x	11	O=C(Nc1cccnc1)c1c(O)c2ccccc2[nH]c1=O
-0.5	17	c1ccc(CCCN2CCNCC2)cc1
-1.1	6	Cc1ccc(C=Nc2ccc(Oc3ccccc3)cc2)s1
-0.6	-7	Cc1nc(NC2=NCCC(=O)N2)nc2ccccc12
0.7	9	NS(=O)(=O)c1cccc(S(=O)(=O)c2ccc(Cl)c(Cl)c2)c1
13	x	S=c1nccc(-c2ccc(Cl)cc2)[nH]1
x	-24	CN1CCN(c2nnc(-n3cccc3CNCCCN3CCOCC3)s2)CC1
-0.1	20	N#CCc1nnc2n1-c1ccccc1SC2
x	7	O=C(O)COc1ccccc1/C=C1/SC(=S)N(Cc2ccco2)C1=O
x	8	O=C(NCc1ccco1)c1ccccc1OCc1ccc(Cl)cc1

# Screening results: PubChem BioAssay, ICCB-Longwood Screening Facility, Harvard Medical School
